VACV mCherry inh: inhibitors of vaccinia virus infection (mCherry reporter signal); Vaccinia virus mCherry reporter infection, fluorescence; about a quarter of the inactives have no number; AID 720579; Potency, µM (highest dose often 36.5 µM), for the others: at the highest dose activity change, negative = inhibition, most hits filed as inhibitors; 310,000 compounds, 0.63% hits; active = well fitted inhibition curve with a large enough effect; inconclusive = small, poorly fitted or top-dose-only effect; inactive = no such curve, though single readings can be large or run the other way; tested in A549 cells; also: nearly all actives have a fitted effect of over 35% in size; inactives centre near -10
Vaccinia Venus: vaccinia inhibition (Venus reporter). 330,000 compounds, 0.46% hits. Vaccinia virus Venus reporter expression, fluorescence. Potency, µM (top dose mostly 36.5 µM), for inactives: top-dose activity change, negative = inhibition, most hits filed as inhibitors; active means well fitted inhibition curve with a large enough effect; inconclusive means small, poorly fitted or top-dose-only effect; inactive means no such curve, though single readings can be large or run the other way; tested in A549 cells; also: nearly all actives have a fitted effect of over 30% in size; inactives centre near -10
* hit, by the source's call; i = inactive; ? = inconclusive; . = no result given; [ ] = another dose, or the depositor's remark. % is scaled to controls: 0 for no effect and ±100 for the full control effect; potency is read from the fitted curve at half-maximal effect.

Every second line gives: VACV mCherry inh	Vaccinia Venus
- CCCC(c1nnnn1CS(=O)(=O)c1ccc(C)cc1)N1CCC(C(N)=O)CC1 (centres undefined)
 : i	-18%
- Cc1nc2ccc(NC(=O)c3ccc(Cl)c(NC(=O)c4cccs4)c3)cc2s1
 : .	-12%
- Cn1nnnc1SCC(=O)Nc1ccccc1N1CCOCC1
 : -2%	9%
- O=C(CCSCc1cnn(-c2ccccc2)c1-n1cccc1)NCc1ccc(Cl)cc1
 : 16%	3%
- COC(=O)C1=C(c2cccc(C#N)c2)C[C@@H]2CC[C@H]1N2C(=O)NC(C)C
 : i	-4%
- CN(C)c1nccc(Nc2ccccc2)c1C#N
 : .	-21%
- COCCNc1oc(-c2ccccc2Cl)nc1C#N
 : -18%	-12%
- CC(=O)N/C(=C\c1ccccc1)C(=O)N1CCOCC1
 : -17%	?
- C=CC[C@@H](CC(=O)N[C@@H](CO)Cc1ccccc1)C(=O)N[C@@H](COC(=O)[C@@H](CC=C)CC(=O)OC(C)(C)C)Cc1c[nH]c2ccccc12
 : -13%	?
- O=c1oc2ccccc2c(Nc2cccc3cccnc23)c1[N+](=O)[O-]
 : -25%	-10%
- CCc1ccc(NC(=O)N(Cc2ccc(C)cc2)Cc2cccn2-c2nnc(N3CCCC3=O)s2)cc1
 : -13%	-9%
- Cc1onc(-c2ccccc2)c1-c1nnc(CN2CCN(S(=O)(=O)c3ccccc3F)CC2)o1
 : ?	-17%
- Cc1cc(C)cc(OCC(=O)Nc2cnn(CCCC(=O)O)c2)c1
 : -10%	-27%
- COc1ccc(-c2[nH]c(-c3cc(OC)c4c(c3)OCO4)nc2-c2ccccc2)cc1
 : ?	?
- O=C(Cn1ncc2c1-c1ccccc1OC2)N1CCN(c2ccccc2F)CC1
 : -2%	-7%
- CCC(NS(=O)(=O)c1ccc(C)cc1)C(=O)N1CCOCCOCCOCC1 (centres undefined)
 : 0%	-2%
- O=c1cc(C23CC4CC(CC(C4)C2)C3)[nH][nH]1
 : -19%	-14%
- O=S(=O)(Nc1ccc(Cc2ccncc2)cc1)c1ccc(Cl)cc1
 : -26%	-18%
- CCC(C)Nc1ncnc2c1cnn2Cc1ccc(Cl)cc1 (centres undefined)
 : ?	-24%
- CC(C)C[C@H]1CN(CCCC[C@H]2CNC(=O)C(=O)N2CC2CCCCC2)C(=O)C(=O)N1CCc1ccccc1
 : -17%	-3%
- CCC1(C2CCN(C(=O)c3ccccc3C)CC2)NC(=O)N(CCc2scnc2C)C1=O (centres undefined)
 : -10%	-5%
- COc1cc(O)c(C(CCN2CCCCC2)c2cc(OC)c(OC)c(OC)c2)c(OC)c1 (centres undefined)
 : -5%	-25%
- COc1cc(OC)c(C(=O)NC2CCCc3ccccc32)cc1OC (centres undefined)
 : -33%	-19%
- CCC(=O)NNC(=O)CSc1nnc(-c2ccccc2)c(-c2ccccc2)n1
 : -14%	0%
- O=C(Cc1ccccc1)Nc1sc2c(c1C(=O)Nc1cccc(Cl)c1)CCCCC2
 : ?	?
- [N-]=[N+]=NC(c1ccccc1)C(NC(=O)c1cc(C(F)(F)F)cc(C(F)(F)F)c1)c1ccccc1 (centres undefined)
 : 40%[activator]	3%
- COC(C/C=C/C(=O)[C@@H](C)OCc1ccccc1)OC
 : i	-14%
- O=C(Cn1c(=O)c2cc(Cl)ccc2n2nncc12)Nc1ccccc1
 : -6%	-3%
- CC(=O)/C(CN1CCCCC1)=N\O
 : -11%	-6%
- COc1ccc(Nc2nccc(-c3ccc(C#N)cc3)n2)cc1
 : ?	-22%
- O=C(NC1CCCCC1)c1ccc(CS(=O)(=O)Cc2ccccc2F)o1
 : .	-17%
- CC(C)(C)OC(=O)NCCCCCNC(=O)c1[nH]cnc1C(=O)N[C@@H](Cc1ccccc1)C(=O)OCc1ccccc1
 : i	-12%
- CCOC(=O)Cc1csc(NC(=O)/C=C/c2cccc(Br)c2)n1
 : ?	-10%
- CC1=C(c2ccc(C(C)C)cc2)S(=O)(=O)N=C1N1CCC(C(=O)NCc2ccc(C)o2)CC1
 : -4%	-7%
- O=C(Nc1ccc(Cl)cc1)C1CCCN(c2ncnc3c2nc2n3CCCCC2)C1 (centres undefined)
 : -15%	-17%
- COC(=O)c1ccc(NC(=O)Nc2ccc3c(c2)nc(C)n3C)cc1
 : i	0%
- CCCN(CCC)S(=O)(=O)c1ccc(NC(=O)C2CCCO2)cc1 (centres undefined)
 : .	-15%
- CCCN1CCN(C(=O)CCCn2c(C)c3cnn(-c4ccccc4)c(=O)c3c2C)CC1
 : i	-8%
- O=C(CS(=O)(=O)c1ccccc1)N(CCCN1CCOCC1)c1nc2c(F)cccc2s1
 : ?	-22%
- Cc1c(C(=O)N(Cc2ccc(N(C)C)cc2)Cc2ccco2)oc2cc(Br)ccc12
 : -16%	-14%
- CCC1(CC)NC(=O)N(Cc2nc3ccccc3s2)C1=O
 : i	-11%
- CCC(=O)NC1CC(=O)N(c2ccc3c(c2)OCCO3)C1 (centres undefined)
 : -5%	-3%
- Cc1ccccc1NC(=O)c1cc(S(=O)(=O)N2CCCCC2)ccc1N1CCOCC1
 : -5%	-9%
- CCc1cc(-c2cnnn2CCc2c[nH]c3ccccc23)ccc1-c1cn(CC(C)C)nn1
 : -15%	-28%
- O=C(Cc1cccs1)Nc1ccc(F)c(F)c1
 : -1%	-17%
- O=C(CN1C(=O)NC2(CCCC2)C1=O)OCCOc1cccc(Br)c1
 : -22%	-14%
- CC(=O)NCCc1cc2ccc(C)cc2[nH]c1=O
 : -10%	-7%
- Cc1ccc2nsnc2c1S(=O)(=O)N(CCO)Cc1cc2cc3c(cc2[nH]c1=O)OCCO3
 : -17%	-12%
- C[C@H](CO)N1C[C@H](C)[C@@H](CN(C)Cc2ccccc2)Oc2c(NS(=O)(=O)c3ccccc3)cccc2C1=O
 : -6%	-12%
- Cc1c(C(=O)O)oc2c1C(=O)CC(C)(C)C2
 : -14%	-9%
- CCOC(=O)Nc1ccc(C(=O)/C=C/c2ccccc2)cc1
 : ?	?
- COc1ccccc1CNC(=O)CN1C(=O)NC(c2ccccc2)(c2ccccc2)C1=O
 : -18%	-15%
- Cc1ccc(NC(=O)Cc2csc(C)n2)c(C)c1
 : 3%	-3%
- S=c1[nH]nc2nnc3ccccc3n12
 : ?	16%
- Cc1occc1C(=O)Nc1ccccc1C(=O)O
 : .	-2%
- CCC(CC)C(=O)Nc1cccc(C(=O)N2CCCC2)c1
 : i	-9%
- CCN(CC)c1ccc(C=Nc2ccccc2)c(O)c1
 : .	15%
- N#CCSc1ccccc1NC(=O)CN1C(=O)C2CC=CCC2C1=O (centres undefined)
 : -25%	2%
- O=C1C(=Cc2ccc(Br)o2)C(=O)c2ccccc21
 : -14%	5%
- CCOc1ccc(NS(=O)(=O)c2cccc(C(=O)N3CCN(C/C=C/c4ccccc4)CC3)c2)cc1
 : i	?

More entries:
Every second line gives: VACV mCherry inh	Vaccinia Venus
- COc1ccc(-c2csc(NC3OC(=O)c4c3ccc(OC)c4OC)n2)cc1OC (centres undefined)
 : ?	?
- COc1ccc(C2=NN(C(C#N)c3ccc(OC)cc3)C(c3ccccc3)C2)cc1 (centres undefined)
 : -10%	-13%
- CC1(C)CNC(=O)c2sc(NC(=O)c3ccccc3)nc2C1
 : 9%	1%
- COc1cc2oc(=O)cc(CN3CCCCCCC3)c2cc1Cl
 : 39%[activator]	8%
- Cc1cn(C2CCCCO2)c(=O)[nH]c1=O (centres undefined)
 : -15%	6%
- Cn1cc(C(=O)N2CCc3ccccc3C2)c(=O)c2cc(S(=O)(=O)N3CCOCC3)ccc21
 : i	-6%
- CC(C)(C)OC(=O)N1CCC(c2c(C(=O)NC3CCCCC3)cnn2-c2cccc(Cl)c2)CC1
 : -6%	-10%
- CCCCNC(=O)CCCN1C(=O)c2ccccc2Sc2ncccc21
 : -9%	-9%
- CCOc1ccc(CNc2cc(C)nc3nc(-c4cccc(C)c4)nn23)cc1OC
 : i	-18%
- Cc1ccc(S(=O)(=O)N2C[C@@H]3CCCC[C@@H]3[C@@H](C)[C@H]2CC(=O)c2ccccc2)cc1
 : ?	-16%
- Cn1c(-c2cc(Br)ccc2O)n[nH]c1=S
 : -20%	-14%
- Cn1c2ccccc2c2c(C(=O)N3CCC4(CC3)OCCO4)cn(C3CCCC3)c(=O)c21
 : ?	-28%
- CC(C)CN(C(=O)COC(=O)CCSc1ccc(Cl)cc1)c1c(N)n(Cc2ccccc2)c(=O)[nH]c1=O
 : -23%	?
- NC(c1ccncc1)c1ccc(Cl)cc1 (centres undefined)
 : i	-9%
- COc1ccc(CCNC(=O)C2CC2)cc1
 : i	-10%
- CCCc1nn(-c2cc(Cl)ccc2OC)c2c1C(=O)CC(C)(C)C2
 : ?	-18%
- COc1ccc(CNC(=O)C2(CC3CC(c4ccccc4)=NO3)CCN(C(=O)OC(C)(C)C)CC2)cc1 (centres undefined)
 : 13%	-5%
- CCCCn1c(=O)n(CC(=O)NCc2ccc(C)cc2)c(=O)c2c1nc(CO)n2CCC
 : i[1.46 µM]	-8%
- Cc1occc1C(=O)Nc1ccc(Br)cc1F
 : -4%	-1%
- O=C(c1ccccc1Oc1ccccc1)N1CCN(c2ccccc2F)CC1
 : .	-25%
- COCCN(C(=O)COC(=O)CCC1CCCCC1)c1c(N)n(Cc2ccccc2)c(=O)[nH]c1=O
 : -18%	-29%
- CC(=O)N(c1nc(CCl)cs1)c1cccc(C)c1C
 : i	6%
- CN(Cc1c(F)cccc1Cl)C(=O)c1cnc2ccccc2n1
 : -12%	-4%
- C/C(=N\N=C(N)N)c1cccc([N+](=O)[O-])c1
 : -17%	-26%
- CN(Cc1ccccc1)S(=O)(=O)c1ccc(Cl)c(C(=O)O)c1
 : -13%	-10%
- CCOc1ccc(/C(O)=C2/C(=O)C(=O)N(CC3CCCO3)C2c2ccc(C)o2)cc1 (centres undefined)
 : .	-16%
- COc1cc(C(=O)N(Cc2ccc(N(C)C)cc2)C2CCS(=O)(=O)C2)cc(OC)c1OC (centres undefined)
 : -10%	-3%
- CCN(CC)CCNc1nc2c(c(=O)n(C)c(=O)n2C)n1C/C=C(/C)Cl
 : i	-18%
- O=C(CN1C(=O)S/C(=C\c2ccccc2)C1=O)NNC(=O)c1ccccc1O
 : -10%	-4%
- C=CCn1c(SCC(=O)Nc2ccc(Br)cc2)nc(O)cc1=O
 : -13%	-10%

3 compounds already listed, ordered by length of the SMILES, ascending:
Every second line gives: VACV mCherry inh	Vaccinia Venus
- Cc1occc1C(=O)Nc1ccc(Br)cc1F
 : -4%	-1%
- CC(=O)N(c1nc(CCl)cs1)c1cccc(C)c1C
 : i	6%
- COc1cc2oc(=O)cc(CN3CCCCCCC3)c2cc1Cl
 : 39%[activator]	8%

Random excerpt: 2 compounds from above.
Every second line gives: VACV mCherry inh	Vaccinia Venus
- CCCc1nn(-c2cc(Cl)ccc2OC)c2c1C(=O)CC(C)(C)C2
 : ?	-18%
- Cc1ccc(S(=O)(=O)N2C[C@@H]3CCCC[C@@H]3[C@@H](C)[C@H]2CC(=O)c2ccccc2)cc1
 : ?	-16%

More compounds follow:
Every second line gives: VACV mCherry inh	Vaccinia Venus
- O=C1N[C@@H](c2ccccc2)COC(=O)[C@H](Cc2ccc(F)cc2)C/C=C\C[C@H]1CC(=O)N(CCO)Cc1ccccc1
 : i	-26%
- O=C(CN1c2cccc3cccc(c23)S1(=O)=O)Nc1ccc(F)c(F)c1F
 : ?	-4%
- COc1ccc(CCNCc2ccccc2N2CCCC2)cc1
 : -22%	-19%
- CCN(CC)C(=O)Cn1cc(S(=O)(=O)CC(=O)Nc2cccc(NC(C)=O)c2)c2ccccc21
 : i	-13%
- Cc1ccc2c(ccc(=S)n2C)c1
 : i	-11%
- NC(Cc1ccc(C(F)(F)F)cc1)c1csc(Nc2nncc3ccccc23)n1 (centres undefined)
 : ?	?
- O=C(Nc1cc(S(=O)(=O)N2CCOCC2)ccc1N1CCOCC1)c1cc(=O)[nH]c2ccccc12
 : i	-12%
- CCCNC1=C(C)C(=O)CC1
 : .	3%
- O=C(/C=C/c1ccc(F)cc1)NCCCN1CCN(CCCNC(=O)/C=C/c2ccc(F)cc2)CC1
 : -23%	-18%
- C/C(CC(=O)NCc1ccccc1Cl)=N/NC(=O)c1ccccn1
 : -14%	6%
- Cc1ccc(-c2nnc(SCC(=O)N3CCCC3)o2)cc1
 : .	-6%
- CCN(CC)C(=O)CSc1nc2c(sc(=S)n2-c2ccc(C)cc2C)c(=O)[nH]1
 : i	1%
- CCOC(=O)c1ccc(N2C(=O)CC(N3CCN(C(=O)c4ccco4)CC3)C2=O)cc1 (centres undefined)
 : -12%	-13%
- COc1ccccc1CNC(=O)CCC(=O)Nc1nnc(C)s1
 : -8%	4%
- CC/C(=N\NC(=O)c1ccc(-c2ccccc2)cc1)C12CC3CC(CC(C3)C1)C2
 : -3%	-3%

Reformatted as labelled records: entries from further up
CCN(CC)C(=O)Cn1cc(S(=O)(=O)CC(=O)Nc2cccc(NC(C)=O)c2)c2ccccc21
  VACV mCherry inh: i; Vaccinia Venus: -13%
Cc1ccc2c(ccc(=S)n2C)c1
  VACV mCherry inh: i; Vaccinia Venus: -11%
Cc1ccc(-c2nnc(SCC(=O)N3CCCC3)o2)cc1
  VACV mCherry inh: .; Vaccinia Venus: -6%
CCOC(=O)c1ccc(N2C(=O)CC(N3CCN(C(=O)c4ccco4)CC3)C2=O)cc1 (centres undefined)
  VACV mCherry inh: -12%; Vaccinia Venus: -13%

Screening data (PubChem)
